KCNQ2 block: KCNQ2 potassium channel inhibitors, primary screen, cell-based, CHO-K1, FluxOR thallium flux, B-score (AID 2156) | 20 min; stronger effect = lower value; only compounds with negative scores are shown here; some inactives read as strong as hits | actives 1.1% (n = 310,000) | B-score at 10 µM | Potassium voltage-gated channel subfamily KQT member 2 (Rattus norvegicus), O88943;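 active = fluorescence ratio B-score at most minus 3 library SDs, with starting brightness B-score within 2 library SDs, cut at about -5.5 in these data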
Target sequence (O88943 whole entry, looked up): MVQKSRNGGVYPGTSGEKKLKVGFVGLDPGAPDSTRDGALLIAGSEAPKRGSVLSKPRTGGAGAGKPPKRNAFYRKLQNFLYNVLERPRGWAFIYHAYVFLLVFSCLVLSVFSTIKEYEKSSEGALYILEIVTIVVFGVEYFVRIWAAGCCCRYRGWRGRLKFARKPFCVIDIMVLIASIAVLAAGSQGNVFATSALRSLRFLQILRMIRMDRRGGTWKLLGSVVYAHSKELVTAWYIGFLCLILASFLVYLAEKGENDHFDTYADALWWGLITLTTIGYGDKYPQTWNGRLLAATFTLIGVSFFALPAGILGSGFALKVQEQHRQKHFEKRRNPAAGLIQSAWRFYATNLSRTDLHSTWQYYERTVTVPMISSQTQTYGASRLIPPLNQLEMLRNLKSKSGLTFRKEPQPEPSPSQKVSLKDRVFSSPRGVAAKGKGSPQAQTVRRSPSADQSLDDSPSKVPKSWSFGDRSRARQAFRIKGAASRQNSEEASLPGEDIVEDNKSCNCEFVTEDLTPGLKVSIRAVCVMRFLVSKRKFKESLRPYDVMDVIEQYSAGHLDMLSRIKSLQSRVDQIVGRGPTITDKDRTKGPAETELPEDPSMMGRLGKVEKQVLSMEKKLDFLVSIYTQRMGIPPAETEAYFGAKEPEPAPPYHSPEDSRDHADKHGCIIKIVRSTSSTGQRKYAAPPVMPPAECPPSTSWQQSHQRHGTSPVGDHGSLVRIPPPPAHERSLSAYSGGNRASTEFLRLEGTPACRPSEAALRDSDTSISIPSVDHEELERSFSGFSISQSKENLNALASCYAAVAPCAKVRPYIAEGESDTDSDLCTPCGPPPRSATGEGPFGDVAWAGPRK
KCNQ2 block baseline: also measured in KCNQ2 block; calls as there; B-score; measured here: initial fluorescence intensity artifact check;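 brightness before thallium and not channel activity; 0 = typical well and far values either way flag optical interference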
* marks the source's active call; other numbers are inactive results; i = inactive. These rows are one share of the data; the hit share may differ from the screen's.

SMILES	KCNQ2 block	KCNQ2 block baseline
COc1ccc(/C(N)=N/OC(=O)c2ccc3c(c2)OCO3)cc1OC	i	1.49
Cc1ccc(-c2noc(CCCc3ccccc3)n2)cc1	i	-1.16
Cc1cc(NC(=O)c2ccc(Br)c([N+](=O)[O-])c2)no1	i	-1.15
Cc1ccc(-n2c(Cc3noc4ccccc34)n[nH]c2=S)cc1	i	0.68
O=[N+]([O-])c1nn(-c2ccc3c(c2)OCCO3)n(O)c1=NCc1ccc(F)cc1	i	-2.26
CNC(=O)/C(=C\c1cccc(Oc2ccccc2)c1)NC(=O)c1ccccc1	i	1.07
Brc1ccccc1-c1nnc2sc(-c3ccc4c(c3)OCCO4)nn12	i	-0.14
Cc1nn(-c2ccc(Cl)cc2)c(=O)c2c(C)noc12	i	-0.46
COc1ccc(OC)c(C(=O)NC2CCSc3ccccc32)c1 (configuration not stated)	i	-1.84
Cc1ccc(N=C(N(C)C)P(=O)(N(C)C)N(C)C)c(C)c1	i	-1.04
COc1c(Cl)cccc1-c1cn2ccccc2n1	i	-0.25
CCOc1c(Cl)cc(CNCc2ccccn2)cc1OC	i	-0.34
Cc1ccc(C2=NS(=O)(=O)N(C)C(C(=O)NC3CCCCC3)=C2)cc1	i	-0.36
Cc1ccc(C(=O)Nc2c(-c3cccs3)c(=O)c3ccccc3n2C)cc1	i	-1.36
COc1ccccc1N1CCN(C(=O)c2cc3cc(F)ccc3[nH]2)CC1	i	-2.21
COC(=O)c1ccc(C2C3=C(Nc4nnnn42)c2ccccc2OC3)cc1 (configuration not stated)	i	2.89
CCOc1cc(NC(=O)C(C)C)c(OCC)cc1NC(=O)Nc1ccccc1	i	1.06
O=C(CSc1nnnn1Cc1ccccc1)c1ccccc1	i	1.32
COc1ccc(NC(=O)CSc2ccc(F)cc2)cc1S(=O)(=O)N1CCCCC1	i	-0.04
CC(C)(C)c1ccc(OCC(=O)N/N=C/c2cc(Br)ccc2OC(=O)c2ccco2)cc1	i	0.02
O=C(Nc1ccncc1)C1CC(=O)N(c2ccc(F)cc2)C1 (configuration not stated)	i	-0.04
O=C(CCCSc1nnc(Nc2ccccc2F)s1)N1CCOCC1	i	0.19
O=C(COC(=O)/C=C/c1ccc(S(=O)(=O)N2CCOCC2)cc1)NCc1ccccc1	i	1.47
COc1ccc(OC)c(C(=O)COC(=O)C(CCSC)NC(=O)COc2ccccc2)c1 (configuration not stated)	i	-0.03
O=Cc1c(Nc2cccc(C(F)(F)F)c2)nc2ccccn2c1=O	i	-1.98
COc1ccc(/C(C)=N/Nc2ccc(F)cc2F)c(O)c1	i	0.91
O=C1OCCN1C(=O)[C@H]1[C@H](c2ccc(F)cc2)C(c2ccc(F)cc2)=NN1c1ccc(Br)cc1	i	0.12
Nc1nnc(SCC(=O)OCC(=O)Nc2ccc(Br)cc2F)s1	i	-1.26
O=C(C1=NN(c2ccccc2)C(=O)CC1)N1CCc2ccccc2C1	i	1.06
COc1ccc(C(=O)CSc2nnc(COc3ccccc3)n2Cc2ccco2)cc1	i	1.16
CC(Sc1ccccc1)C(=O)N/N=C/c1cccnc1 (configuration not stated)	i	-1.2
CN(C)/C=C1/C=C(c2ccccc2)OC1=O	i	3.01
CCOC(=O)/C(=C\C=C1/Sc2cc(OCC)c(OCC)cc2N1CC)C(C)=O	i	59.9
CCOC(=O)C(C(=O)OCC)C(C)C#CCN1CCCCC1 (configuration not stated)	i	1
CCn1c(CN2CCOCC2)nnc1SCC(=O)Nc1ccccc1Cl	i	1.4
COc1ccccc1C(=O)NNC(=O)c1ccc(NS(=O)(=O)c2cccs2)cc1	i	1.34
O=c1c2ccccc2nc(COc2ccccc2)n1/N=C/c1c[nH]c2ccccc12	i	-0.8
CCOc1cccc(C2C(C#N)=C(N)Oc3cc(C)n(Cc4ccccn4)c(=O)c32)c1OCC (configuration not stated)	i	0.71
CCOc1ccc2nc(SCC(=O)NCc3ccco3)sc2c1	i	0.87
Cc1cc(C(=O)OCC(=O)Nc2ccccc2F)c(C)o1	i	0.29
COc1ccc(OCC(=O)OCCN2C(=O)c3ccccc3C2=O)cc1	i	0.36
CC(C)(C)NC(=O)CSC(=Nc1cccc(F)c1)NC#N	i	2.24
CON(C)S(=O)(=O)c1ccc2c(c1)N(Cc1ccc(C)cc1)C(=O)C1CCCN21 (configuration not stated)	i	0.02
O=C(NCCc1ccccc1)C1COc2ccccc2O1 (configuration not stated)	i	0.01
CCCNC(=O)c1ccc2c(=O)c(O)c(C)[nH]c2c1	i	-0.01
COC(=O)C1CCN(C(=O)COC(=O)C2CCN(S(=O)(=O)c3c(Cl)cccc3Cl)CC2)CC1	i	-1.4
N#C/C(=C\c1ccc(OC(F)F)cc1)C(=O)N1CCCCC1	i	-2.01
CC(=O)Nc1ccc(NC(=O)COc2ccc(Cl)cc2Cl)cc1	i	0.31
O=C(NCC1CCCO1)C1CCN(S(=O)(=O)c2cccnc2)CC1 (configuration not stated)	i	0.03
O=C(CSC1=N/C(=C/c2ccc(Cl)c(Cl)c2)C(=O)N1c1ccccc1F)NC1CC1	i	-1.49
OCCC1CN(Cc2cc(F)ccc2-n2cccn2)CCN1Cc1ccc(F)cc1 (configuration not stated)	i	0.05
O=C1/C(=C/c2cccnc2)Oc2cc(OS(=O)(=O)c3ccc(Cl)cc3)ccc21	i	0.02
Cc1cc(C)n2cc(COc3ccc4ccccc4c3)nc2n1	i	0.56
CC(C)CNC(=O)c1cccc(Cn2cc(Cl)cn2)c1	i	-0.11
COc1ccc(CC(=O)N/N=C/c2cccnc2)cc1OC	i	0.1
O=C(COC(=O)c1nc(Cl)ccc1Cl)Nc1ccc2c(c1)OCO2	i	-1.53
Cc1c(C(C)(C)C)c(C=S)n2ccccc12	i	0.81
CN1c2ccccc2C(C)(C)C12C=Cc1cc(O)ccc1O2 (configuration not stated)	-7.11*	-2.02*
Cc1ccc2c(CN(C)Cc3ccccc3)cc(=O)oc2c1C	i	-1.04
CC1CC(C)CN(S(=O)(=O)N2CCCC(C(=O)NC3CCCCC3C)C2)C1 (configuration not stated)	i	1.49

14 successive records already listed:
SMILES	KCNQ2 block	KCNQ2 block baseline
O=C(NCCc1ccccc1)C1COc2ccccc2O1 (configuration not stated)	i	0.01
CCCNC(=O)c1ccc2c(=O)c(O)c(C)[nH]c2c1	i	-0.01
COC(=O)C1CCN(C(=O)COC(=O)C2CCN(S(=O)(=O)c3c(Cl)cccc3Cl)CC2)CC1	i	-1.4
N#C/C(=C\c1ccc(OC(F)F)cc1)C(=O)N1CCCCC1	i	-2.01
CC(=O)Nc1ccc(NC(=O)COc2ccc(Cl)cc2Cl)cc1	i	0.31
O=C(NCC1CCCO1)C1CCN(S(=O)(=O)c2cccnc2)CC1 (configuration not stated)	i	0.03
O=C(CSC1=N/C(=C/c2ccc(Cl)c(Cl)c2)C(=O)N1c1ccccc1F)NC1CC1	i	-1.49
OCCC1CN(Cc2cc(F)ccc2-n2cccn2)CCN1Cc1ccc(F)cc1 (configuration not stated)	i	0.05
O=C1/C(=C/c2cccnc2)Oc2cc(OS(=O)(=O)c3ccc(Cl)cc3)ccc21	i	0.02
Cc1cc(C)n2cc(COc3ccc4ccccc4c3)nc2n1	i	0.56
CC(C)CNC(=O)c1cccc(Cn2cc(Cl)cn2)c1	i	-0.11
COc1ccc(CC(=O)N/N=C/c2cccnc2)cc1OC	i	0.1
O=C(COC(=O)c1nc(Cl)ccc1Cl)Nc1ccc2c(c1)OCO2	i	-1.53
Cc1c(C(C)(C)C)c(C=S)n2ccccc12	i	0.81

Remaining list, next part
SMILES	KCNQ2 block	KCNQ2 block baseline
CCCCCOc1ccccc1C(=O)NCC(=O)O	i	1.3
Cc1ccc(OCC(=O)N2CCCC(CO)(CCOc3ccccc3)C2)cc1 (configuration not stated)	i	-1.3
COc1ccccc1CNC(=O)C1CC(c2ccccc2C(F)(F)F)=NO1 (configuration not stated)	i	-0.33
COc1ccc(OCCN(C)Cc2ccccc2)cc1	i	1.64
C=CCc1ccc(OCCOCCOc2cccc3ccc(C)nc23)c(OC)c1	i	0.38
COc1ccc(C(=O)N(CCc2ccccc2)Cc2cccs2)c(OC)c1	i	0.16
O=C(Nc1cscc1S(=O)(=O)c1ccc(Cl)cc1)c1ccccc1Cl	i	-0.68
Cc1cc(C)cc(OCCNC(=O)C(C)N2C(=O)c3ccccc3C2=O)c1 (configuration not stated)	i	-0.51
COc1ccc(-c2ccc(SCC(=O)c3ccccc3)nn2)cc1OC	i	-0.81
O=S(=O)(Nc1ccc2c(c1)OCCO2)c1ccc(F)c(F)c1	i	0.03
COc1ccc(-c2[nH]ncc2CN2CCCC2c2nonc2C)c(F)c1 (configuration not stated)	i	0.13
COc1ccc(/C=N\NC(=O)c2ccc([N+](=O)[O-])cc2)cc1COc1c(F)c(F)cc(F)c1F	i	-0.51
N=c1n(CCN2CCCCC2)c2ccccc2n1CC(O)c1cccc(Br)c1 (configuration not stated)	i	-0.36
Cc1oc2c(C)c3oc(=O)c(CC(=O)N[C@@H](CCCNC(N)=O)C(=O)O)c(C)c3cc2c1C	i	1.18
Cc1ccc(S(=O)(=O)N2CCOC23CCN(C(=O)C(=O)NCc2ccccc2)CC3)cc1	i	-0.42
CC(C)Cc1ccc(C(=O)NCc2ccc3c(c2)OCO3)o1	i	-1.13
COC(=O)C1=C(C)N(CCc2c[nH]c3ccccc23)C(=O)/C1=C\N(C)C	i	-1.33
CN=Cc1cc(-c2ccccc2)sc1O	i	0.01
Cc1ccc(-c2nc(Nc3ccc(O)cc3)c3ccccc3n2)cc1	i	-0.46
O=C1CCN(Cc2ccc(Cl)cc2)N1	i	0.54
Cc1onc(-c2ccccc2)c1C(=O)Nc1ccnn1C1CCCCC1	i	-0.01
CC(C)(C)c1ccc(Cn2nnc3c(=O)[nH]c(C4CCN(C(=O)c5ccco5)CC4)nc32)cc1	i	-0.98
CCOc1ccc(C(=O)OC(C)CN2CCN(C)CC2)cc1 (configuration not stated)	i	-0.96
O=C(CCc1nc2cccnc2n1Cc1ccccc1)NCCc1ccc(Cl)cc1	i	0.45
CSc1cccc(NC(=S)N(Cc2ccc(C)cc2)Cc2cccnc2)c1	i	1.68
Cc1ccc(C(=O)OCC(=O)NCc2cccs2)cc1C	i	0.16
COc1ccccc1CNCc1ccc(C)cc1	i	0.34
Cc1ccc(/C=C/C(=O)Nc2ccc(S(=O)(=O)Nc3onc(C)c3C)cc2)cc1	i	1.01
CCOc1cc(C(=O)OCC(=O)c2c(C)[nH]c3ccccc23)ccc1OCC(=O)N1CCOCC1	i	0.37
COc1ccccc1NS(=O)(=O)c1cc([N+](=O)[O-])ccc1N/N=C/c1sc(N2CCOCC2)nc1-c1ccccc1	i	0.68
O=S(=O)(Cc1ccccc1)Nc1ccc(S(=O)(=O)N2CCCC2)cc1	i	0.77
Cc1nc(N2CCCCC2)c2c(C)c(C(=O)Nc3ccccc3C(F)(F)F)sc2n1	i	0.58
CCCCn1c(=O)[nH]c(=O)c2c1nc(-c1ccccc1F)n2Cc1ccccc1	i	-0.06
Cc1ccc(NC(=O)COC(=O)CCn2c(C)csc2=O)cc1S(=O)(=O)N1CCOCC1	i	-0.71
Cc1nnc2ccc(Oc3ccc(-c4ccccc4)cc3)nn12	i	-0.77
C/C(=N\Nc1ncc(Cl)cc1Cl)c1ccc(OC(F)F)cc1	i	-0.25
O=C(/C=C/c1cccs1)Nc1ccc([N+](=O)[O-])cc1	i	-0.47
CN(Cc1ccccc1)C(=O)COc1ccc(Br)cc1Cl	i	0.24
O=c1cc2c(nn1Cc1cccc(Cl)c1)-c1ccccc1CC2	i	1.25
COc1ccc([C@H]2/C=C\CN(C(=O)[C@H](Cc3ccccc3)NC(=O)OCC3c4ccccc4-c4ccccc43)CC(=O)N2Cc2ccc(F)cc2)cc1	i	-1.85
CN(C)c1ccc(P(=O)(OC2CCCCC2)C(O)c2cccnc2)cc1 (configuration not stated)	i	-2.18
CCCc1cc(=O)oc2cc(C)cc(OCC(=O)NC(Cc3c[nH]c4ccc(O)cc34)C(=O)O)c12 (configuration not stated)	i	-1.22
CCSC1=N/C(=C\c2ccc(OC)cc2)C(=O)N1	i	0.25
CCCCc1c(C)nc2ccccc2c1SCCC#N	i	-2.08
O=C(NC1CCN(C(=O)NC2CCCCC2)CC1)c1ccco1	i	-0.09
COc1cc(C(=O)NC(=S)Nc2ccc3c(c2)C(=O)N(C)C3=O)cc(OC)c1OC	i	-0.09
CC(=O)c1ccc(NC(=O)C2Cc3ccccc3CN2C(=O)c2ccccc2)cc1 (configuration not stated)	i	-0.95
Cc1ccc(-c2csc(/C(C#N)=C/Nc3ccccc3SC(F)(F)F)n2)c(C)c1	i	1.66
COc1ccccc1N(C)S(=O)(=O)c1ccc(C(=O)N2CCCC(C(F)(F)F)C2)cc1 (configuration not stated)	i	0.56
CCOC(=O)c1ccc(NC(=S)NNC(C)(C)C)cc1	i	-1.09
O=C(CCc1ccc(O)cc1)N/N=C/c1coc2ccccc2c1=O	i	-0.6
CC(OC(=O)Cn1cnc2c1c(=O)n(C)c(=O)n2C)C(=O)NCc1ccccc1 (configuration not stated)	i	-0.08
CCc1ccccc1NC(=O)c1cnccn1	i	-0.05
O=[N+]([O-])c1ccc(/C=N/Nc2cc(Cl)nc(-c3ccccc3)n2)cc1	i	-0.45
O=C(Nc1ccc(N2CCN(C(=O)c3ccc(Cl)cc3)CC2)cc1)c1cc2ccccc2o1	i	0.19
Cc1cnc(C(=O)OCC(=O)Nc2cc(-c3ccccc3)nn2-c2ccccc2)cn1	i	1.15
CCOCCCNc1nc2c(-c3ccccc3)nnn2c2ccccc12	i	-1.58
CCN1C(=O)CSC1=NC12CC3CC(CC(C3)C1)C2	-7.84*	-0.66*
CC(C)N(Cc1ccccc1)C(=O)CCc1ccccc1	i	-0.89
COC(=O)C1(C)NC(c2ccc(F)cc2)C2C(=O)N(c3ccc(C)cc3)C(=O)C21 (configuration not stated)	i	0.99
O=C(CNC(=O)c1ccc(Cl)cc1)NCC(F)(F)F	i	-0.09
